D2 potentiator: positive allosteric modulators of human D2 dopamine receptor; P14416; DiscoveRx D2 beta-arrestin cells, luminescence, 90 min; 100% = 57 uM dopamine signal; potentiation, % (no concentration beside the values); actives 0.23% (n = 360,000); AID 624464; active = potentiation of 50% or more; inconclusive = 30% to 50%; inactive = 30% or less;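 note: compound concentration not given in the record; tested on top of an EC20 dose of dopamine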
Target sequence (P14416 whole entry, looked up): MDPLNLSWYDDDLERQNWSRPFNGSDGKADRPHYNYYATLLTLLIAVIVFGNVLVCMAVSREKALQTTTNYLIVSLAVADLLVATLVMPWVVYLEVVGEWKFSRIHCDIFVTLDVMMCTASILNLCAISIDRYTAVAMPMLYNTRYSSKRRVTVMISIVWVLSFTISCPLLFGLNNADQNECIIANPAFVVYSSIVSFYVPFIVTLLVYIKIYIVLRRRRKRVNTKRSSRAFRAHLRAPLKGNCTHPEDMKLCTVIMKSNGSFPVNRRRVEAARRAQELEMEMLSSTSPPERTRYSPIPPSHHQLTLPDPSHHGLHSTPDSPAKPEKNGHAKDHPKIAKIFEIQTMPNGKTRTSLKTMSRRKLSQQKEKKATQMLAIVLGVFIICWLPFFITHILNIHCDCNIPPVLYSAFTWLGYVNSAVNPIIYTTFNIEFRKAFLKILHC
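D2 cells co-treated with compound plus 50 nM dopamine (EC20) for 90 min at 37 deg C to detect potentiation. Beta-arrestin recruitment was read as enzyme-fragment luminescence after 1 h at ambient temperature. Full response was set by 57 uM dopamine.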
Six1-Eya2 inh: inhibitors of human Six1/Eya2 interaction. actives 0.56% (n = 360,000). AID 651725. Q15475+O00167. activity change, % (concentration not given with the values). AlphaScreen GST-Six1/His-Eya2 binding, biochemical; active compounds read low; control for the full effect not named in the record; in the data active = activity change below about -65%; inconclusive = about -30% to -65%; inactive = above about -30%; note: % is set by controls: 0 for no effect and ±100 for the full control effect
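AlphaScreen with GST-Six1 and His-Eya2 (5X mix: 250 nM and 500 nM), glutathione donor and nickel acceptor beads; buffer 50 mM Tris pH 8.0, 300 mM NaCl, 1 mM TCEP; 1 h at 37 C in the dark.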
D2 ag: agonists of human D2 dopamine receptor (beta-arrestin) | P14416 | DiscoveRx PathHunter D2 beta-arrestin, luminescence, 90 min; 100% = 57 uM dopamine signal | activation, % (no concentration beside the values) | actives 0.084% (n = 360,000); in the data active = activation above about 40%; inconclusive = about 15% to 40%; inactive = below about 15%; note: compound concentration not given in the record; the text of the record calls up to 30% inactive
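DiscoveRx PathHunter D2 beta-arrestin cells (2,100/well) attached overnight, then compound-stimulated 90 min at 37 C in HBSS/10 mM HEPES/0.1% Tween-20 buffer; beta-galactosidase complementation read by luminescence after 1 h at ambient temperature. Dopamine 57 uM final (EC100) as control.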
CtBP-E1A inh: CtBP/E1A binding inhibition. activity change, % (concentration not given with the values). AlphaScreen GST-E1A/His-CtBP binding, 1536-well; active compounds read low; control for the full effect not named in the record. actives 0.49% (n = 340,000). AID 651724; in the data active means activity change below about -65%; inconclusive means about -30% to -65%; inactive means above about -30%; note: % is set by controls: 0 for no effect and ±100 for the full control effect
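Homogeneous bead-based format: GST-tagged E1A captured on glutathione donor beads, His-tagged CtBP on nickel acceptor beads; compounds precede bead addition by 2 h at 37 °C.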
Sfp inh: Sfp phosphopantetheinyl transferase inhibition; Q9F4F7; Biochemical Sfp PPTase activity, qHTS; Potency, µM, inactives show max response, negative = inhibition, actives largely listed as inhibitors; actives 3.5% (n = 310,000); active = well fitted inhibition curve with a large enough effect; inconclusive = small, poorly fitted or top-dose-only effect, or another doubt; inactive = no such curve, though single readings can be large or run the other way;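 note: the enzyme is Sfp with the accession as filed and its product quenches rhodamine fluorescence; potency is the fitted concentration of half-maximal effect; 0% = enzyme reaction without inhibitor and -100% = no enzyme wells; top concentration of the series not given in the record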
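Fluorescence-quenching assay with 15 nM Sfp, 5 uM rhodamine-CoA and 12.5 uM BHQ-2-labelled ybbR peptide in pH 7.6 Hepes/MgCl2 buffer. Enzyme was pre-incubated with compound for 15 min at room temperature. Rate was taken from the 30-min fluorescence change (525/598 nm).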
TRPV1 potentiator: potentiators of human vanilloid receptor 1 (TRPV1); Q8NER1; actives 0.02% (n = 320,000); potentiation, % at 8.33 µM; TRPV1-expressing cells, Fluo-8 calcium influx, capsaicin EC20 potentiation; host cell line not named in the record; control for the full effect not named in the record; active means potentiation above 80%; inconclusive means 30% to 80%; inactive means below 30%; note: 0% is about no effect
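Cells expressing TRPV1 were dye-loaded with Fluo-8 and read kinetically: 10 s baseline, 3 min after compound (agonist portion), then 2 min after EC20 capsaicin (allosteric enhancer portion). Calcium-bound dye fluorescence at 480/520 nm.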
PINK1 modulator: changes PINK1 expression; PINK1 immunofluorescence, high-content cytometry, 24 h; actives 0.2% (n = 410,000); Potency, µM (titrated, usually from 76.6 µM), for the others: top-dose activation (PINK1 increase), hits mostly activators; active = well fitted activation curve with a large enough effect; inconclusive = small, poorly fitted or top-dose-only effect; inactive = flat fitted curve, though single readings scatter; cell line not stated here;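 note: potency is the fitted concentration of half-maximal effect; % of control where 0% means no effect; nearly all actives have a fitted effect of over 65% in size; a mitochondrial uncoupler was the plate control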
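Stable cell line, 250 cells/well, 12 h attachment; compounds pinned at 5 concentrations, 24 h; CCCP control. Fixed with nuclear dye, primary antibodies 12 h at 10 degrees C, secondary plus cell stain; laser-scanning cytometer read.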
An asterisk follows results filed as active; ? = inconclusive; nt = no result given; [ ] = dose if it differs, or a comment. Hits appear at their usual frequency; overall some 3.7% were active at least once.

SMILES | D2 potentiator | Six1-Eya2 inh | D2 ag | CtBP-E1A inh | Sfp inh | TRPV1 potentiator | PINK1 modulator
COC(=O)c1cc(CNC(=O)c2ccc(O)c(Cl)c2)ccc1OC | -24 | 2 | 0.8 | 3 | 10% | 0 | -1.5%
O=[N+]([O-])c1ccccc1NCc1c(O)ccc2ccccc12 | 6 | -22 | -4.5 | nt | ? | 13 | 7.8%
CN(c1ccc(C(=O)N2CCOCC2)cc1[N+](=O)[O-])C1CCCCC1 | -4 | -9 | 2.1 | -20 | -5% | -25 | 3.2%[38.3 µM]
CCCC(=O)N1CCN(c2ccc(NC(=O)c3ccco3)cc2)CC1 | -3 | 10 | 3.6 | -7 | 13% | -1 | -1.7%
O=C(C[n+]1ccccc1)Nc1cc(C(F)(F)F)ccc1Cl | -44 | 10 | -2.4 | 7 | -16% | 1 | -0.5%
CCc1c(C)c2ccc(OC3CCCCC3=O)cc2oc1=O (stereo not given) | -5 | 1 | 3.4 | -2 | 0% | -15 | 1.6%
CCn1cc(C(=O)NCc2ccc(C)o2)c2cc(OC)c(OC)cc2c1=O | -16 | -7 | -1.9 | -2 | 35µM* | 11 | 0.3%
CC(C)c1ccc(NC(=O)NCc2ccc(F)cc2)cc1 | -20 | 2 | -1.0 | nt | 18% | 7 | 9.5%
CC1=C(C(=O)Nc2ccccc2)C(c2cccc([N+](=O)[O-])c2)Nc2nc3ccccc3n21 (stereo not given) | -4 | 1 | -0.7 | -1 | 20% | -4 | 8.2%[38.3 µM]
COc1ccc(C2/C=C\CN(C(=O)c3ccc(C)cc3)[C@H](Cc3ccccc3)C(=O)N2Cc2ccc(F)cc2)cc1 (stereo not given in full) | -4 | -6 | -4.1 | -9 | 12% | 3 | 3.6%
O=C(CC1SC(=NCCc2ccccc2)N(/N=C/c2cccs2)C1=O)Nc1ccc(Cl)cc1 (stereo not given) | -10 | 0 | -5.5 | -1 | 36%[activator] | 16 | 2.3%
CNC(=S)c1cc(C(C)(C)C)c(O)c(C(C)(C)C)c1 | -7 | -13 | 8.0 | 0 | 4% | 23 | 4.4%
O=C(O)Cc1ccc2ocnc2c1 | -5 | 2 | -2.9 | 5 | 15% | 7 | 3.0%
O=C(CNC(=O)c1ccc(F)cc1)N/N=C/c1cccnc1 | -9 | 1 | -1.0 | 6 | 17% | -6 | 0.7%
Nc1nc2c(Br)ccc(Br)c2cc1C(=O)NCc1cccc2ccccc12 | nt | 24 | nt | 26 | nt | nt | 3.4%
Cc1ccc(C)c(S(=O)(=O)Nc2ccc(O)c3ccccc23)c1 | -13 | -1 | ? | nt | 71µM* | 24 | 0.9%
O=C(O)CC/C(=C\c1cccc(NC(=O)c2ccccc2Cl)c1)c1nc2ccccc2s1 | -11 | -11 | 0.4 | 3 | 18% | ? | 2.8%
COc1cccc(C(=O)CC(=O)C(=O)Nc2ccc(C)cc2Cl)c1 | -6 | -3 | -2.5 | -5 | 10% | 27 | 11%
O=C(c1ccc(Cl)cc1)c1cc([N+](=O)[O-])ccc1N1CCOCC1 | -3 | -6 | -0.7 | -10 | -2% | 2 | 2.1%
NNC(=O)c1cccc(COc2ccc3c(c2)CCC3)c1 | -31 | 8 | -4.5 | 24 | -6% | -9 | 3.6%
Cn1c(C(=O)NCC2CCCO2)cc2c(=O)n3ccccc3nc21 (stereo not given) | -8 | 4 | 1.3 | 4 | 14% | 2 | -3.0%
CCCc1cc(=O)[nH]c(SCc2nc3ccccc3o2)n1 | -4 | -4 | 3.5 | 10 | -11% | 8 | -1.1%
CCOC(=O)N/N=C/c1cc(C)n(-c2cccc3ccccc23)c1C | -11 | -9 | 4.6 | -9 | 1% | 1 | ?
Cc1cccc(NS(=O)(=O)c2ccc3c(c2)oc(=O)n3C)c1C | -2 | -5 | 0.8 | -6 | 8% | 11 | -0.1%
O=C(c1ccccc1)N1CCN(S(=O)(=O)N2CCCCCC2)CC1 | 8 | 16 | -0.7 | 6 | 15% | 28 | 2.5%
SMILES | D2 potentiator | Six1-Eya2 inh | D2 ag | CtBP-E1A inh | Sfp inh | TRPV1 potentiator | PINK1 modulator
C/C(=N\NC(=O)CNC(=O)c1ccncc1)c1ccc(C)cc1 | -5 | 5 | 1.5 | 15 | 12% | 8 | -0.9%
O=C(CSCc1cccc(CSCC(=O)Nc2ccccc2)n1)Nc1ccccc1 | -2 | -1 | 0.2 | 5 | -4% | -13 | 2.2%
CC(C)Oc1ccc(C(=O)NC2(C(F)(F)F)NC(=O)N(CCCc3ccccc3)C2=O)cc1 (stereo not given) | 5 | -3 | -0.9 | -1 | 1% | ? | 7.7%
CN(Cc1ccccc1)C(=O)c1[nH]c(C(F)(F)F)nc1-c1ccccc1 | 0 | -8 | -3.7 | -6 | nt | nt | 2.0%
COc1cccc(C(=O)Nc2ccc(N3CCCC3)cc2)c1 | 9 | 0 | -3.8 | -22 | -9% | -19 | 14%
COc1cc(NC(=O)c2ccc(-c3ccc(Br)cc3)o2)ccc1NC(=O)C(C)C | -9 | -5 | -2.2 | 0 | 19% | 11 | 16%
Cc1ccc(S(=O)(=O)N2CCN(C(=O)Cn3cnc4c3c(=O)n(C)c(=O)n4C)CC2)cc1C | 2 | 3 | 3.8 | 8 | nt | 1 | 3.1%
O=C1CCN(Cc2cccnc2)CCN1[C@H](CO)Cc1ccccc1 | -5 | -23 | -0.2 | -9 | 12% | 19 | -1.1%
Cc1ccc(CNC(=O)COC(=O)c2cccnc2Cl)cc1 | -4 | -12 | 4.2 | -21 | nt | nt | -2.2%
Cc1csc(=O)n1CC(=O)OCc1nnc(-c2ccc([N+](=O)[O-])cc2)o1 | 4 | -17 | 1.4 | 1 | nt | -2 | -0.7%
O=S(=O)(N/N=C/c1ccc(Cl)cc1)c1ccc(Cc2ncc(C(F)(F)F)cc2Cl)s1 | -10 | -6 | -3.7 | 2 | 17% | -1 | -1.0%
COC(=O)c1cc(OC)c(OC)cc1NC(=O)Nc1cccc(C(C)=O)c1 | 1 | -1 | 5.2 | 2 | 14% | -1 | 0.7%
COc1cc2c(cc1OC)-c1cc(N3CCc4ccccc43)nc(=O)n1CC2 | -5 | -22 | -2.5 | -18 | 12% | 3 | ?
O=C1CN(C(=O)c2cccc(Br)c2)c2ccccc2N1 | -4 | 5 | -2.4 | 5 | 2% | 1 | 9.5%
CC(=O)OC1C(N2CCCCC2)c2c(ccc(/C=C/C(=O)N3CCCCC3)c2O)OC1(C)C (stereo not given) | 1 | 8 | 1.1 | 2 | 2% | -18 | 9.0%
c1ccc(CN2CCOCC2)cc1 | -15 | 1 | -2.1 | 13 | -2% | -3 | 6.2%[38.3 µM]
O=C(CN1CCCCC1)N1c2ccccc2CCc2ccccc21 | -2 | 7 | -0.1 | 0 | -3% | -1 | 0.5%
NC(c1ccccc1)c1csc(Nc2cc(Oc3ccccc3)ncn2)n1 (stereo not given) | -2 | ? | 2.9 | ? | nt | nt | ?
Cc1ccc(C(=O)NC2CC(=O)N(c3ccc4c(c3)OCCO4)C2)cc1[N+](=O)[O-] (stereo not given) | -7 | -5 | -3.2 | -6 | nt | 15 | 3.6%
Cc1ccc(S(=O)(=O)Nc2ccc(N3CCOCC3)nc2)cc1 | -4 | 8 | 6.2 | nt | -16% | -15 | -0.7%
COc1ccc(C2CC(c3cccc(C(F)(F)F)c3)=NN2c2ccc(S(N)(=O)=O)cc2)cc1 (stereo not given) | 2 | 42 | -1.2 | 46 | nt | nt | -1.3%
Cc1ccc(CSCC(=O)NCc2ccco2)cc1 | -16 | -15 | -3.9 | -1 | 2% | 19 | -0.6%
Cc1ccc(S(=O)(=O)N2CC(O)C2)cc1 | -4 | -2 | 5.8 | 3 | nt | -32 | -0.2%
CC(=O)N/C(=C/c1ccc2c(c1)OCO2)C(=O)Nc1ccccc1 | -3 | 5 | 0.6 | 5 | 7% | -5 | 0.8%
CCCCNC(=O)C(Sc1ccccc1)c1ccccc1 (stereo not given) | 6 | 9 | 2.0 | 17 | -14% | ? | -0.5%

Fetched one by one from the list above:
SMILES | D2 potentiator | Six1-Eya2 inh | D2 ag | CtBP-E1A inh | Sfp inh | TRPV1 potentiator | PINK1 modulator
Cc1ccc(C(=O)NC2CC(=O)N(c3ccc4c(c3)OCCO4)C2)cc1[N+](=O)[O-] (stereo not given) | -7 | -5 | -3.2 | -6 | nt | 15 | 3.6%
CN(Cc1ccccc1)C(=O)c1[nH]c(C(F)(F)F)nc1-c1ccccc1 | 0 | -8 | -3.7 | -6 | nt | nt | 2.0%

Only TRPV1 potentiator, D2 ag and CtBP-E1A inh (3 entries from above):
SMILES	TRPV1 potentiator	D2 ag	CtBP-E1A inh
COc1cc2c(cc1OC)-c1cc(N3CCc4ccccc43)nc(=O)n1CC2	3	-2.5	-18
O=C1CN(C(=O)c2cccc(Br)c2)c2ccccc2N1	1	-2.4	5
CC(=O)OC1C(N2CCCCC2)c2c(ccc(/C=C/C(=O)N3CCCCC3)c2O)OC1(C)C (stereo not given)	-18	1.1	2

Continuation.
SMILES | D2 potentiator | Six1-Eya2 inh | D2 ag | CtBP-E1A inh | Sfp inh | TRPV1 potentiator | PINK1 modulator
O[C@H]1C[C@H](c2ccc(Cl)cc2)N(Cc2cccs2)C[C@@H]1n1cc(C2CC2)nn1 | nt | -1 | 0.6 | 0 | nt | nt | 0.6%
CN(C(=O)COC(=O)C1=COCCO1)c1c(N)n(Cc2ccccc2)c(=O)[nH]c1=O | 0 | 7 | -1.9 | 11 | nt | ? | -0.7%
COC(=O)c1cc(OC(=O)CCc2ccc(OC)c(OC)c2)cc(C(=O)OC)c1 | 0 | -28 | 1.5 | -20 | -4% | -36 | 3.4%
CSCC[C@H](NC(=O)Nc1ccc(C)cc1)C(=O)O | -5 | 8 | 0.9 | 3 | 5% | -9 | 3.2%[38.3 µM]
Cc1cccc(-n2nnnc2SCC(=O)Nc2cccc(S(N)(=O)=O)c2)c1 | -12 | 0 | -1.7 | nt | 8% | ? | 0.5%
CCCC(c1nnnn1CCOC)N1CCN(c2cccc(OC)c2)CC1 (stereo not given) | 1 | -1 | -3.7 | 17 | 8% | -2 | 0.4%
CC(C)(C)C(=O)Nc1cccc(C(=O)Nc2cc(C(=O)O)cc(C(=O)O)c2)c1 | -3 | 1 | 0.7 | -1 | 11% | 3 | 2.2%
COc1ccc(N2CCN(C(=O)CSc3nnc(NC(=O)C4CC4)s3)CC2)cc1 | 2 | -5 | -1.1 | 3 | 1% | -1 | 0.4%
Cc1ccc(OCC(=O)Nc2nnc(C3CCCO3)s2)c(Br)c1 (stereo not given) | -10 | 0 | 2.7 | 4 | -9% | 10 | 0.9%

Screening results (PubChem)
